# Assay outcomes deposited in PubChem BioAssay by ICCB-Longwood Screening Facility, Harvard Medical School.
# BasE inh: BasE siderophore enzyme inhibitors, primary screen, biochemical, Acinetobacter baumannii ATCC 17978, fluorescence polarization; 84,000 tested, 0.1% active; inhibition, % (test concentration not listed); purified BasE, fluorescence polarization binding displacement;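 active = both replicates above 25% with normal brightness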;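 note: 0% = negative plate control signal and 100% = positive plate control signal; stock transfer was 100 nL into about 30 µL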
# LANA-nucl inh: inhibitors of KSHV LANA-nucleosome binding, primary screen, biochemical, fluorescence polarization, FITC-LANA1-23, chicken nucleosomes; FITC-LANA1-23 / chicken nucleosome fluorescence polarization; stronger effect = lower value; z-score (test concentration not listed); 51,000 tested, 0.3% active; AID 720717, 2013;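 active = both repeat wells score below -2 in polarization z-score versus plate sample wells, excluding overly bright wells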;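 note: 100 nL library stock added to about 30 µL; numbers are from one replicate; some results filed as inactive read as strong as hits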
#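 test system = FITC-LANA peptide and chicken nucleosomes | amount = 240 nM purified chicken nucleosomes (480 nM peptide binding sites), final | reagent = 50 nM FITC-LANA1-23 probe | medium = TEN-BT buffer, pH 7.5 | doses = single compound addition by pin transfer, 100 nL per well | timing = 10–45 min, room temperature | detection = fluorescence polarization | repeats = duplicate plates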
# * = called active by the depositor; x = not tested or not shown; & = joins results of further samples.
SMILES,BasE inh,LANA-nucl inh
CC1CCCC(C)N1NC(=S)NC1CCCCC1 (stereo unspecified),1.1,-0.936
Nc1n[nH]c(=S)n1Cc1ccccc1,2.0,-0.132
CSc1nnc(-c2ccccc2N)c(=O)[nH]1,-2.7&0.0,0.332
Cc1ccc2c(=O)c(C(=O)NC3CCCC3)c[nH]c2c1,0.2,-0.253
CSc1nc(C)c(C)c(=O)[nH]1,0.4,1.81
Cc1oc(C(C)(C)C)cc1C(=O)NC(Cc1ccccc1)C(=O)O (stereo unspecified),0.5,0.338
CCC(Oc1ccccc1)C(=O)N1CCCCC1C (stereo unspecified),2.6,-0.718
COc1ccc(NC(=O)c2cccnc2Cl)cc1,x,0.218
Cc1ccc(C(=O)N/C(=C/c2ccccc2)C(=O)NCc2ccco2)cc1,2.4,-0.139
CCCCn1c(SCC(=O)N2CCCCCC2)nnc1-c1ccoc1C,1.4,-1.47

# Full records, quoted from the list.
# Results for COc1ccc(NC(=O)c2cccnc2Cl)cc1 : BasE inh = x; LANA-nucl inh = 0.218
# Results for Cc1ccc2c(=O)c(C(=O)NC3CCCC3)c[nH]c2c1 : BasE inh = 0.2; LANA-nucl inh = -0.253
# Results for CCC(Oc1ccccc1)C(=O)N1CCCCC1C (stereo unspecified) : BasE inh = 2.6; LANA-nucl inh = -0.718

# (listing goes on)
SMILES,BasE inh,LANA-nucl inh
CS(=O)(=O)N(CC(=O)O)C1CCCCC1,0.4,-1.05
O=C(C1=CC=CN2CCS(=O)(=O)N=C12)N1CCN(c2ccccn2)CC1,2.5,x
Cc1ccc(C(=O)Nc2c(C(C)(C)C)nn(C)c2C(C)(C)C)cc1,0.1,-0.872
COc1cc(NC(=O)c2ccco2)c(OC)cc1NC(=O)CSc1ncc(-c2ccc(F)cc2)[nH]1,0.5,0.272
CCn1c(=NC(=O)c2ccc(Cl)s2)sc2ccccc21,0.8,0.0725
COCc1cc(C)nc2sc(C(=O)N(C)c3ccccc3)c(N)c12,1.7,0.079
COc1ccc(C2CC(=O)Nc3cc(OC)c(OC)cc32)cc1 (stereo unspecified),1.3,0.12
Cc1ccc2c(cnn2C(=O)CCCC(=O)N2CCN(c3ccccc3)CC2)c1,-0.8,-0.0325
c1ccc(CSc2ncnc3nc[nH]c23)cc1,0.5,0.031
Cc1nn(-c2ccccc2)cc1/C=N/NS(=O)(=O)c1ccccc1,1.9,x
N#CCCN=Nc1c(O)n(CO)c2ccccc12,0.6,x
Cc1cc2c(cc1Br)NC(=O)/C2=N\N1C(=O)c2ccccc2C1=O,3.4,0.327
CC1CN(CCC(C)c2ccccc2)CC(C)O1 (stereo unspecified),-1.5,0.178
CC1Cc2ccccc2N1C(=S)NC(=O)c1ccco1 (stereo unspecified),1.0,x
C=CCn1c(=O)n(CC=C)c(=O)n(Cc2ccc(Cl)cc2)c1=O,-0.5,x
Clc1cc(Cl)c(OCCCCn2cncn2)c(Cl)c1,0.7,-0.579
O=C1N=c2ccccc2=C1c1sc(NS(=O)(=O)c2ccccc2)nc1O,2.2,x
CC(C)C(=O)NS(=O)(=O)c1ccc(NC(=O)c2ccco2)cc1,-1.0,-0.797
CC1(C)Cc2cccc(Oc3nnnn3-c3ccccc3)c2O1,0.2,x
CN(Cc1ccccc1)C(=O)Cn1ncn2nc(-c3cccs3)cc2c1=O,1.0,0.183
O=C(Cc1ccccc1)NC1CCN(C(=O)C2CCC2)CC1,-1.5,x
c1cc(-c2ccc3c(c2)OCO3)[nH]n1,x,0.163
Cc1cc(C)nc(NCCCO)n1,2.1,-0.137
Cc1ccn2c(NC(=O)CN3CSCC3=O)c(-c3ccccc3)nc2c1,3.5,x
O=C(Nc1ccccc1C(=O)NCCN1CCOCC1)c1cccs1,-1.2,-0.822
NC(=O)C1CCN(C(=O)CCSc2ccc(Cl)cc2)CC1,-0.8,-0.35
O=C(OC1CCCC1=O)c1cc(-c2ccco2)nc2ccccc12 (stereo unspecified),1.6,x
CCOC(=O)c1c(-c2ccc(OC)cc2)csc1NC(=O)CNCc1ccco1,-1.3,0.958
CCn1c(CSc2nc3ccccc3n2CCOC)nc2cc(S(=O)(=O)N(C)C)ccc21,0.1,x
Cc1ccnc(NC(=O)c2ccccc2NC(=O)c2ccccc2)c1,-0.3,-0.417
CCOC(=O)c1ccccc1NC(=O)c1ccc(F)cc1,0.3,-0.027
C1CCN(C2=NCCS2)CC1,-1.6,x
COc1ccc(-c2noc(CC(=O)N3CCc4ccccc43)n2)cc1,1.8,-0.0175
O=C(N/C(=C/c1ccc2c(c1)OCO2)C(=O)N1CCOCC1)c1ccc(Br)cc1,2.3,-1.12
CCOC(=O)c1c(C)oc2ncnc(Nc3ccccc3)c12,1.4,x
Cc1cc(N2CCN(c3ccccn3)CC2)nc2c(C)cccc12,-4.7,x
COC(=O)C1CN(C(=O)Cc2coc3cc4c(cc23)CCC4)c2ccccc2O1 (stereo unspecified),1.3,x
COc1ccc(Br)cc1CNC(=O)CS(=O)(=O)Cc1nc(-c2ccc(C)cc2)oc1C,-0.7,-0.94
Cc1cc(Nc2ccc(N(C)C)cc2)n2c(nc3ccccc32)c1C#N,-0.2,0.0665
Cc1c(Cc2ccccc2)c(=O)oc2cc(OCc3ccc(C(=O)O)cc3)ccc12,3.4,x
Cc1nc(N)sc1N=Nc1ccccc1C(F)(F)F,1.8,x
CC(C)c1ccc2[nH]c3c(c2c1)CCC/C3=N\O,1.9,x
Cc1ccc(-c2cc(C(=O)N3CCCCC3C)[nH]n2)cc1C (stereo unspecified),0.2,x
C=CCN1CC2(c3ccccc3)CN(CC=C)CC(c3ccccc3)(C1)C2=O,-0.8,-0.399
C=CCn1c(C)cc(C(=O)CN2NS(=O)(=O)c3ccccc3C2=O)c1C,-9.9,x
CC(C)N(C=O)C1(C(=O)NC2CCCCC2)CCCCC1,-1.1,0.309
CC(C)NC(=S)Nc1ccc2cn[nH]c2c1,0.5,x
CCN(Cc1ccccc1)Cc1nnc(-c2ccccc2)o1,-0.1,0.12
Cc1c(/C=N/N=C2/C(=O)N(Cc3ccccc3)c3ccccc32)cc(C#N)n1C,2.2,x
ON=C1/C(=N\O)CC2(C/C1=N/O)OCCO2,6.0,-0.841
# The list continues.
SMILES,BasE inh,LANA-nucl inh
O=C(Nc1ccccc1Cl)c1cc2ccccc2cc1O,2.3,x
CC1CCCC(NC(=O)Cn2cnc3onc(-c4ccc(Cl)cc4)c3c2=O)C1C (stereo unspecified),1.7,-0.135
CCCCCC(=O)Nc1ccc(C(=O)COC(=O)c2cnc(C)cn2)cc1,-1.8,x
CC(=O)N1c2ccccc2C=Cc2ccccc21,-1.7,x
CCC(=O)Oc1ccc(C=C2C(=O)NC(=O)NC2=O)cc1OC,-0.8,-0.608
C=CCOC(=O)c1c(N)oc2c(-c3ccccc3)c3c(C(=O)OCC=C)c(N)oc3cc12,0.5,x
COc1ccc2c(CCNC(=O)Nc3ccccc3)c[nH]c2c1,0.8,-0.406
Cc1ccccc1-n1nc2c(c1NC(=O)C(C)C)CSC2,0.3,-0.749
O=C(NCN1CCN(c2ccccc2F)CC1)c1ccccc1,0.1,0.463
O=C(c1ccc2c(c1)C(=O)c1ccccc1-2)c1ccccc1Br,-0.2,x
Cc1ccc(C2CC(c3ccccc3)=Nc3ccccc3S2)cc1 (stereo unspecified),0.9,x
CCOC(=O)c1oc2ccccc2c1COC(=O)CSc1nc(C)cc(C)n1,2.1,x
Cc1cc(C)c2c(c1)c1nc3ccccc3nc1n2CC(=O)O,1.8,-1.09
O=C(c1cccs1)C(O)c1c[nH]c2ccccc12 (stereo unspecified),-0.1,-1.29
Nc1nc2ccccc2n2nnnc12,0.4,x
COc1ccc(-n2c(=S)[nH]c3cc(C(=O)NCc4ccco4)ccc3c2=O)cc1,-0.6,-0.408
Oc1ccccc1C=Nc1ccc(-c2nc3ccccc3s2)cc1,-0.1,x
COC(=O)c1cccc(C(=O)OC)c1Cl,3.5,0.308
C=CCn1c(=N)n(CC(=O)O)c2ccccc21,-2.0,-0.0825
Cc1ccc(Nc2nc(N)nc(COC(=O)c3ccccc3NS(C)(=O)=O)n2)cc1,-3.2,x
CC(C)C(=O)Nc1ccc2nc(SCc3cc(=O)n4nc(C(C)C)sc4n3)sc2c1,2.2,0.413
CC(Oc1ccc(Cl)cc1Cl)C(=O)N1CCN(C(=O)c2ccco2)CC1 (stereo unspecified),1.2,0.734
O=C(CCCN1C(=O)c2ccccc2C1=O)Oc1ccccc1,1.2,x
Cn1c(CC(=O)Nc2ccccc2F)nnc1SCC(=O)N1CCOCC1,-2.2,1.94
Cc1ccccc1C(=O)OCc1cnc(Cl)s1,x,-0.155
CC(C)NC(=O)/C=C/c1ccc2c(c1)OCO2,-0.2,0.136
CCCc1c(C(=O)NCc2ccc3c(c2)OCO3)cnn1-c1ccccc1,3.4,x
CO/N=C(/C)c1ccc2c(c1)CCO2,1.3,-0.744
COc1ccc(C2NC(=S)NC(C)=C2C(N)=O)cc1 (stereo unspecified),0.7,x
CCOC(=O)c1ccsc1NC(=O)C1C2C=CC(C2)C1C(=O)O (stereo unspecified),0.6,-0.45
Cc1cc(C)n2nc(SC(C)C(=O)NCc3ccc4c(c3)OCO4)nc2n1 (stereo unspecified),2.0,-0.411
CN1CCN(c2ccccc2NC(=O)c2cccnc2Sc2ccccc2)CC1,0.6,x
CCN(CC)C(=O)CSc1nnc(C)s1,1.2,0.434
O=c1c2c3c(sc2n2cnnc2n1-c1ccccc1)CCCCC3,-1.2,0.248
O=C(COC(=O)CN1C(=O)C2CC=CCC2C1=O)Nc1cccc2nsnc12 (stereo unspecified),-0.7,x
Cn1c(=O)[nH]c(=O)c2c1nc(N1CCCC1)n2CCO,-1.3,1.34
Cc1ccc(CC(=S)N2CCOCC2)cn1,2.0,x
CCCCN(C)c1ncnc2oc(C)c(C(=O)OCC)c12,2.7,x
CCCCS(=O)(=O)NC1=NCN(CCO)CN1,0.5,x
CN(Cc1nc2ccccc2c(=O)[nH]1)Cc1cc(=O)oc2cc3c(cc12)CCC3,-3.0,x
O=C(O)CCN1C(=O)c2cccnc2Sc2ccccc21,-0.4,0.823
CN(C)c1nc(C2CC2)nc2c1nnn2Cc1ccccc1Cl,-1.9,2.11
CC(=O)Nc1cccc(C(=O)NCC2(N3CCCCC3)CCCCC2)c1,-1.4,x
COc1ccc(C(=O)OCC(=O)N2C(C)CCCC2C)cc1 (stereo unspecified),0.1,x
S=C(Nc1ccc2c(c1)OCCO2)Nc1ccccc1N1CCOCC1,1.8,x
NC(=O)N/N=C/CCc1ccccc1,0.8,x
N#Cc1c(N)nc(SCC(=O)c2ccc(Cl)cc2)c(C#N)c1-c1ccco1,3.7,0.397
O=c1[nH]c2sc3c(c2c(=O)n1-c1ccccc1)CCCC3,0.6,-0.0665
CCOC(=O)N1CCN(C(=O)CN2C(=O)c3cc(Cl)c(Cl)cc3C2=O)CC1,5.7,-0.655
Cc1cc(C)c(Cn2cccc2C2=NC(C(C)C)CO2)c(C)c1 (stereo unspecified),2.0,-0.5

# Quoted at random: four entries already listed, in no set order.
SMILES,BasE inh,LANA-nucl inh
COc1ccc(C(=O)OCC(=O)N2C(C)CCCC2C)cc1 (stereo unspecified),0.1,x
CN(C)c1nc(C2CC2)nc2c1nnn2Cc1ccccc1Cl,-1.9,2.11
Cc1cc(C)c(Cn2cccc2C2=NC(C(C)C)CO2)c(C)c1 (stereo unspecified),2.0,-0.5
CCOC(=O)N1CCN(C(=O)CN2C(=O)c3cc(Cl)c(Cl)cc3C2=O)CC1,5.7,-0.655

# (listing goes on)
SMILES,BasE inh,LANA-nucl inh
CC(C)COC(=O)c1c(N)n(-c2ccc(S(N)(=O)=O)cc2)c2nc3ccccc3nc12,0.7,-0.184
Cc1ccc(C)c(S(=O)(=O)Nc2ccccc2C(=O)OCc2nnc(-c3ccccc3)o2)c1,-3.5,x
CCOc1ccc(NC(=S)NC(C)(C)C)cc1,5.3,-0.086
CSc1ncccc1C(=O)Nc1ccnn1Cc1ccccn1,0.1,x
CC(=O)N1CCC(N(c2ccc3c(c2)OCO3)S(=O)(=O)c2ccccc2)CC1,0.6,0.764
Cc1ccc(/C=N\NC(=O)c2cc(C)oc2C)cc1,-1.5,0.018
COc1ccc(Oc2coc3cc(OCC(=O)O)ccc3c2=O)cc1,0.8,-0.273
Cc1cc(C(=O)COc2ccc3c(c2)CCC3)c(C)n1C,-0.8,x
Cc1cc(Cl)ccc1NC(=S)NCCCO,-1.1,-0.397
CC(=O)OCC12C3C4C5C3C13CC53C2C4(F)F (stereo unspecified),-0.1,x
CC(C)N(C(=O)CSc1ncccc1C(=O)O)c1ccccc1,-1.0,x
COc1ccc(CSc2nnc(SCc3cc(C)on3)s2)cc1,0.1,x
N=c1oc(=N)c2ccccc2o1,10.9,-1.42
CCOc1ccc2oc(=O)cc(CN(CCCN3CCOCC3)Cc3ccco3)c2c1,-0.8,0.122
O=C1CN(Cc2c(-c3ccccc3)[nH]c3ccccc23)CCN1,2.6,x
C=C[C@@]1(C)CC(=O)[C@@]2(O)[C@](C)(O1)[C@@H](OC(C)=O)[C@@H](O)C1C(C)(C)CC[C@H](O)[C@@]12C (stereo partly specified),-0.9,0.591&-0.49
Cc1cc(Nc2ccc(NNC(=O)c3ccc(F)cc3)nn2)n(-c2ccccc2)n1,0.9,x
Cc1nc(CS(=O)(=O)c2ccccn2)sc1C(=O)NN,1.1,x

# A portion of the library (hit frequency here may not be typical).
